Screens from PubChem.
ClpP mod = qHTS Assay for Activators of ClpP; AID 651965, 2013; Potency, µM (titrated, usually from 57.5 µM), inactives show at the highest dose activity change, negative = active; 340,000 compounds, 1.9% hits; ATP-dependent Clp protease proteolytic subunit (Bacillus subtilis (strain 168)), P80244; purified B. subtilis ClpP, FRET peptide cleavage, 20 min; active = well fitted falling curve with a large enough effect; inconclusive = small, poorly fitted or top-dose-only effect; inactive = no such curve, though single readings can be large or run the other way; further: potency means the concentration at half of the fitted maximal effect; the source files actives as falling curves though it sought activators and does not explain the sign; nearly all actives have a fitted effect of over 65% in size; many hits overshoot -100%
Target sequence (P80244 whole entry, looked up): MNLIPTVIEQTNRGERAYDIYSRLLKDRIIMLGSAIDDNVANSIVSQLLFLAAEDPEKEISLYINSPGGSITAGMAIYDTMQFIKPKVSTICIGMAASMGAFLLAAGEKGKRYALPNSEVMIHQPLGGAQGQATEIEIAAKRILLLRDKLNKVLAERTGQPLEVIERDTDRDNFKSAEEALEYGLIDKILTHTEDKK
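ClpP 10 microg/mL final, pH 8 Tris/KCl buffer with BSA, glycerol, Tween-20; compound pinned in; FRET-FV substrate; RT 20 min; Ex320/Em430; ΔFRET vs ADEP 5.8 microM, DMSO, no enzyme.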
TRPML1 ag = activates the human TRPML1 channel. Q9GZU1. TRPML1-expressing cells, Ca2+ dye fluorescence, FDSS; host cell line not named in the record; reference of the full effect not given here. activation, % (no concentration beside the values). 410,000 compounds, 0.12% hits; in the data active = activation above about 50%; inconclusive = about 30% to 50%; inactive = below about 30%; further: 0% is about no effect; the text of the record puts the active cut at 80%
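TRPML1-DL cells, Tet-induced overnight (~16 h, 37 degrees C), loaded 45-90 min at room temperature with Ca8 no-wash calcium dye plus quencher. FDSS fluorescence: 10 s baseline, compound pin-transfer, 110 s agonist read, then EC80 54-4 (4uM final) and 110 s antagonist read.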
Menin-MLL FL inh = menin-MLL binding inhibition, fluorescein peptide. Fluorescence polarization, fluorescein-MLL peptide displacement from menin. 290,000 tested, under 10 active. FP activity change, % at 61.4 µM; inconclusive = falling polarisation curve, or a change in total fluorescence; inactive = total fluorescence flat and polarisation flat or rising; no compound was filed as active; the % refers to the polarisation; negative = inhibition;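 further: % of control where 0% means no effect; inhibitors lower the polarisation; unlabelled MLL peptide was the positive control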
TRPML1 inh = human mucolipin-1 channel inhibition; Q9GZU1; TRPML1-inducible cells, Ca2+ dye fluorescence, FDSS; active compounds read low; inhibition of EC80 agonist-evoked calcium signal; activity change, negative = inhibition, % (test concentration not listed); 390,000 compounds, 0.02% hits; in the data active means activity change below about -50%; inconclusive means about -30% to -50%; inactive means above about -30%;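 further: stimulus is agonist 54-4 at its EC80 concentration; on the % scale 0 is the no-effect control and ±100 the full control effect; compound concentration not given in the record; the text of the record puts the active cut at -80%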
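TRPML1-DL cells, Tet-induced overnight (~16 h, 37 °C) at 1,500 cells/well, were loaded with Ca8 no-wash dye plus quencher for 45-90 min at room temperature. Compounds were pinned during FDSS kinetic reading; agonist 54-4 at EC80 (4 uM final) then added.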
PINK1 modulator = changes PINK1 expression; PINK1 immunofluorescence, high-content cytometry, 24 h; 410,000 compounds, 0.2% hits; Potency, µM (highest dose often 76.6 µM), for the others: top-dose activation (PINK1 increase), usual class: activators; active = well fitted activation curve with a large enough effect; inconclusive = small, poorly fitted or top-dose-only effect; inactive = flat fitted curve, though single readings scatter; cell line not stated here;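 further: potency means the concentration at half of the fitted maximal effect; % of control where 0% means no effect; nearly all actives have a fitted effect of over 65% in size; a mitochondrial uncoupler was the plate control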
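Readout is PINK1 immunofluorescence, quantified alongside mitochondrial, cell and nuclear markers by laser-scanning microplate cytometry. Cells from a stable line were exposed to compound titrations (5 concentrations) for 24 hours, with CCCP controls.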
TRPV1 PAM = potentiators of human vanilloid receptor 1 (TRPV1); TRPV1-expressing cells, Fluo-8 calcium influx, capsaicin EC20 potentiation; host cell line not named in the record; control for the full effect not named in the record; Q8NER1; AID 540277; potentiation, % at 8.33 µM; 320,000 compounds, 0.02% hits; active means potentiation above 80%; inconclusive means 30% to 80%; inactive means below 30%; further: 0% is about no effect
Target sequence (Q8NER1 whole entry, looked up): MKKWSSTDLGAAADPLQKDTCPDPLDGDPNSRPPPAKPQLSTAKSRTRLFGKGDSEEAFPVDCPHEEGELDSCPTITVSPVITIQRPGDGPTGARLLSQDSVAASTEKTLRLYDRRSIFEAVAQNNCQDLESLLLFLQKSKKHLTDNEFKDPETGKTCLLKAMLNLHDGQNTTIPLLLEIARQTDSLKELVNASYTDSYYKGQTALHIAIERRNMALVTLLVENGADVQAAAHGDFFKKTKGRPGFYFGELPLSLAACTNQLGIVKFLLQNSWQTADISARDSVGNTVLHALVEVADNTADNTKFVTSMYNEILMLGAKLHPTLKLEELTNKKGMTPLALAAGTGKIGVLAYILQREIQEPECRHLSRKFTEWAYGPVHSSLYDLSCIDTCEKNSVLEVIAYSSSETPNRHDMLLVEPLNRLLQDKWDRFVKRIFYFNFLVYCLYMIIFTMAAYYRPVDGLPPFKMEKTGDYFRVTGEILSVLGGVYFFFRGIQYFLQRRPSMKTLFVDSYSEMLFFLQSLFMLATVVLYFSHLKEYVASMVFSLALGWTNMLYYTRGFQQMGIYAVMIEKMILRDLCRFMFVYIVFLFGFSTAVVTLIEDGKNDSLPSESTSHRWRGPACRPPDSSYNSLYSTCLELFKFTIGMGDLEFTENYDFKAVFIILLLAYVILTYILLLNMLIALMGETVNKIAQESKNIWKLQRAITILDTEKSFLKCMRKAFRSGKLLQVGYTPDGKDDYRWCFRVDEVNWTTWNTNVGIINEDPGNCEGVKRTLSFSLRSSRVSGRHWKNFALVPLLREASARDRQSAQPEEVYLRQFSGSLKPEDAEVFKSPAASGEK
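TRPV1-expressing cells were cultured overnight at 35.5C and loaded with Fluo-8 calcium dye for 40 to 90 min at room temperature. After a 10 s baseline, compound was added and calcium influx was read kinetically for 3 min (ex 480/em 520 nm).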
Sfp inh = inhibitors of Bacillus subtilis Sfp phosphopantetheinyl transferase | Q9F4F7 | Biochemical Sfp PPTase activity, qHTS | Potency, µM, inactives show max response, negative = inhibition, most hits filed as inhibitors | 310,000 compounds, 3.5% hits; active means well fitted inhibition curve with a large enough effect; inconclusive means small, poorly fitted or top-dose-only effect, or another doubt; inactive means no such curve, though single readings can be large or run the other way;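 further: the enzyme is Sfp with the accession as filed and its product quenches rhodamine fluorescence; potency means the concentration at half of the fitted maximal effect; 0% = enzyme reaction without inhibitor and -100% = no enzyme wells; top concentration of the series not given in the record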
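After 15 min at room temperature with compound, 15 nM Sfp received 5 uM rhodamine-CoA plus 12.5 uM BHQ-2-ybbR (50 mM Hepes pH 7.6, 10 mM MgCl2). Rate came from the fluorescence difference over 30 min, ex 525/em 598 nm.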
Numbers without * were called inactive; ? = inconclusive; · = no result given; & = joins results of further samples; [ ] = another dose, or the depositor's remark.

SMILES	PINK1 modulator	TRPML1 inh	Sfp inh	ClpP mod	TRPV1 PAM	Menin-MLL FL inh	TRPML1 ag
CCC(C)NC(=O)c1ccccc1NS(=O)(=O)c1ccc(OC)c(OC)c1 (stereo not given)	-0.8%	52.9	9.2%	?	2.7	2.5	-0.3
CC(C)(CO)Nc1ncnc2onc(-c3ccc(F)cc3)c12	2.1%	-20.4	9.0%	·	14.4	-1.2	1.0
Cc1cc(NC(C)c2ccccc2)n2ncc(-c3ccccc3)c2n1 (stereo not given)	2.0%	-9.0	-20.4%	3.3%	0.9	-0.1	0.5
Nc1nc(=S)n(-c2ccccc2)[nH]1	2.3%	-20.5	28.2µM*	·	-3.4	-4.9	0.0
COc1ccc(C(=O)NN=C2CCCC2)c(OC)c1	-1.1%	-5.4	-6.2%	-1.4%	3.4	-4.0	1.3
CCOC(=O)N1CCN(C(=O)CN(c2ccc(C)c(C)c2)S(=O)(=O)c2ccccc2)CC1	-2.7%	9.0	4.3%	0.5%	-1.9	1.8	-0.2
Cc1ccc(CC2CC(=O)N(Cc3ccco3)C2=O)cc1 (stereo not given)	-1.0%	-11.0	35.5µM*	-0.4%	-3.9	2.0	-1.5
CCOc1cc(C#N)ccc1OCC(=O)NNC(=O)CC1CCS(=O)(=O)C1 (stereo not given)	-2.2%	-13.8	·	-0.9%	3.3	·	0.8
CCc1nn(CC(=O)NCCc2ccc(Cl)cc2)c(=O)c2cc3ccccc3n12	2.1%	-8.7	·	?	·	·	-0.6
O=C(C[n+]1ccccc1)N/N=C/c1ccccc1F	0.1%	-3.7	10.5%	·	-6.7	-2.8	-0.5
O=C(Nc1cc(-c2nc3ccccc3o2)ccc1Cl)c1sc2c([N+](=O)[O-])cccc2c1Cl	1.3%	-0.8	·	-0.2%	·	·	-0.5
CCOC(=O)c1c(C)[nH]c(C(=O)OC(C(=O)N(C)C)c2ccccc2)c1C (stereo not given)	-0.6%	·	·	-1.2%	·	·	-0.3
O=C(Nc1cccc2cccnc12)c1cccc2c(Br)cccc12	0.5%	7.7	·	-0.9%	·	·	-0.4
Cc1nnc(NC(=O)CSc2ncnc3c2cnn3-c2ccccc2C)s1	5.0%[38.3 µM]	27.3	-26.7%	0.6%	-0.8	2.5	-0.2
Cc1cc(=O)oc2cc(OCC(=O)NC3CCN(Cc4ccccc4)CC3)c(Cl)cc12	6.5%	23.9	14.2%	-7.1%	0.9	·	0.2
Cc1onc(-c2c(F)cccc2Cl)c1C(=O)NC(=S)Nc1c(C)n(C)n(-c2ccccc2)c1=O	-0.3%	-4.8	18.2%	·	-0.2	-5.7	-0.5
CN1CCC(=O)N([C@H](CN=[N+]=[N-])c2ccccc2)CC1	-0.2%	-2.5	22.3%	-1.3%&-15.6%	-3.3	1.5	0.1&-0.2
COc1ccc(S(=O)(=O)c2ccccc2)cc1NS(=O)(=O)c1cccc(C(=O)O)c1	0.8%	-3.1	·	0.9%	3.4	·	0.1
Cc1ccc(C)c(C(=O)N(Cc2nc(-c3ccc(Cl)cc3)no2)C(C)C)c1	27.5%	7.6	?	1.7%	-2.5	-1.5	0.0
O=C(COC(=O)c1cc(=O)[nH]c2ccccc12)c1ccc(Br)cc1	0.5%	5.2	2.8%	·	-12.8	-0.3	-0.5
O=[N+]([O-])c1ncccc1OCc1ccccc1Br	-2.5%	15.3	2.0%	·	8.2	-3.2	4.0
CC(=O)Nc1ccc(C=NN=C2c3ccccc3-c3ccccc32)cc1	3.6%	0.3	·	-4.0%	·	·	0.9
Cc1cc(CNC(=O)C(C)Cc2ccccc2)nn1C (stereo not given)	2.5%	8.1	8.7%&15.5%	-1.6%	8.4	-2.2&0.4	-0.6
CSCC[C@H](NC(=O)[C@H](Cc1ccccc1)n1c(=O)[nH]c2ccccc2c1=O)C(=O)N[C@@H](Cc1ccccc1)C(=O)O	-0.2%	·	5.9%	-19.0%	-13.5	0.8	·
Cc1[nH]c(=O)[nH]c(=O)c1/C=N/NC(=O)CCCCCNC(=O)OC(C)(C)C	0.0%	38.8	-1.9%	·	9.2	-0.2	1.3
COc1ccc(/C=C/c2nnc(NC(=O)CSc3ccc(Cl)cc3)s2)cc1	?	52.5	-15.5%	?	14.4	8.1	-0.2
CCOc1ccccc1NC(=O)CC1Nc2ccccc2NC1=O (stereo not given)	0.8%	8.2	5.6%	25.1µM*	17.3	-0.5	1.5
O=C1OC(Cc2ccncc2)C(O)=C1C1=NCCCN1 (stereo not given)	3.1%	4.2	24.3%	-3.9%	7.1	-1.6	0.7
O=c1oc2ccc([N+](=O)[O-])cc2c(N2CCOCC2)c1[N+](=O)[O-]	·	·	-4.1%	·	9.9	5.3	·
COc1cc(C(O)c2nc(-c3cccc(C(C)C)c3)cs2)ccc1F (stereo not given)	12.1%	·	·	-0.6%	·	·	-0.1
COC(C(=O)Nc1cc([N+](=O)[O-])ccc1C)c1ccccc1 (stereo not given)	-1.4%	10.4	11.2%	·	5.5	-0.3	-0.2
O=C(c1c(O)cc(O)cc1O)C1c2c(cc(O)c3c2O[C@H](c2ccc(O)cc2)[C@@H](O)C3)OC1c1ccc(O)cc1 (stereo not given in full)	3.6%	12.0	·	1.0%	8.5	·	-0.4
CCOC(=O)CCc1c(C)c2ccc(OCC(=O)N(CC)CC)c(C)c2oc1=O	0.8%	1.1	4.8%	?	-4.8	0.7	-0.3
CCNc1ncc2nc(-c3ccccc3)c(=O)n(C)c2n1	0.7%	·	10.3%	·	·	-16.7	·
COc1ccc(OC)c(S(=O)(=O)Nc2cccc(O)c2)c1	0.3%	-3.1	·	0.8%	·	·	0.2
COCCC(=O)N1CCCC(C(=O)c2ccccc2SC)C1 (stereo not given)	-0.4%	23.0	·	·	·	·	-0.6
Oc1ccccc1/C=N/NC(=S)NC1CC2C=CC1C2 (stereo not given)	28.7%	-10.1	14.3%	·	2.5	0.3	1.2
O=C(c1cc(-c2ccc(Cl)cc2)on1)N1CCCCCC1	7.8%	-8.4	8.1%	-1.9%	-28.1	6.8	-1.7
O=C(CNC(=O)c1ccccc1F)c1ccc(Br)cc1	0.2%	-10.9	7.8%	·	-8.6	0.4	1.7
COc1ccc(C)cc1NC(=O)CNC(=O)Cn1ccc2ccccc2c1=O	0.6%	-9.0	-5.1%	-4.9%	21.9	-0.3	-1.4
CC(CN1CCOCC1)C(=O)O (stereo not given)	-1.1%	-12.6	12.6%	0.3%	-0.2	3.7	-0.3
O=P(COc1ccccc1)(c1ccccc1)c1ccccc1	-1.0%	2.2	-15.7%	-0.3%	-17.3	-6.4	-0.4
OC(CNCc1ccc2c(c1)OCO2)COc1ccccc1 (stereo not given)	-2.0%	9.9	4.6%	·	-2.9	-0.6	0.5
CCN(CC)S(=O)(=O)c1cccc(C(=O)Nc2ccccc2C(=O)Nc2ccc(Cl)cc2)c1	1.3%	-10.3	·	?	·	·	-0.5
Cc1ccc(CCNC(=O)C2CCC(=O)N(CC3CCCCC3)C2)cc1 (stereo not given)	1.5%	1.5	12.0%	0.8%	-3.4	-5.0	0.5
COc1ccc(C(=O)Nc2ccc([N+](=O)[O-])cn2)c(OC)c1	2.9%	-11.4	-1.9%	0.4%	-11.5	3.1	-0.2
Cc1ccc(CC(=O)Nc2nccs2)cc1	1.6%	·	1.1%	1.7%	18.8	0.1	·
Cc1ccc(C)c(N(C(=O)c2csnn2)C(C(=O)NC2CCCCC2)c2ccncc2)c1 (stereo not given)	3.2%	1.8	10.1%	·	-14.4	0.8	-0.8
O=C(C[n+]1ccccn1)c1ccccc1	0.9%	-12.8	10.6%	-1.9%	11.6	-0.1	-0.3
Cc1cccc(CNC(=O)C2CCCN(c3nn4c(=O)cc(C)nc4s3)C2)c1 (stereo not given)	-0.7%	0.3	10.2%	-0.1%	1.6	-1.8	-0.1

Continuation.
SMILES	PINK1 modulator	TRPML1 inh	Sfp inh	ClpP mod	TRPV1 PAM	Menin-MLL FL inh	TRPML1 ag
CCN1CCN(CCNC(=O)CCCCCn2c(=O)[nH]c3cc(C(=O)OC)ccc3c2=O)CC1	2.2%[38.3 µM]	13.0	-1.0%	?	9.8	8.6	-0.4
CCOc1ccc(NC(=O)CS(=O)(=O)c2cn(C)c3ccccc23)cc1	-0.7%	-2.3	2.3%	-2.4%	?	1.3	0.3
Cc1cc(=O)oc2cc(OCC(=O)OCC(=O)Nc3ccccc3F)ccc12	-1.7%	-8.2	16.7%	·	2.4	-0.7	0.8
CCCCC(=O)N1CCCC(c2nc3c(nnn3Cc3cc(C)ccc3C)c(=O)[nH]2)C1 (stereo not given)	6.8%[38.3 µM]	0.8	-12.6%	-0.9%	-2.3	-0.1	0.0
CN(Cc1nc(-c2ccncc2)no1)S(=O)(=O)c1ccccc1	-0.3%	-1.2	-3.4%	-1.4%	-11.1	1.9	-0.6
CC(C)c1ccc(NC(=O)c2cc(S(=O)(=O)NCCc3ccccc3)ccc2F)cc1	16.5%	-15.0	·	-7.5%	·	·	0.3
Cc1ccc(SCc2c(C#N)c3ccccc3n2C)cc1	5.7%	46.1	0.3%	-0.8%	0.9	3.4	1.3
COc1cc(OC)c(C2=NOC(C(=O)O)C2)cc1Cl (stereo not given)	-2.6%[38.3 µM]	-2.4	8.7%	-8.5%	0.7	0.7	-0.5
COc1cc(/C(C)=N/NC(=O)CSc2nc3ccccc3[nH]2)ccc1O	0.3%	-3.3	-4.3%	·	0.2	5.8	0.6
Cn1cnnc1SCC(=O)Nc1cc(S(=O)(=O)N2CCCCC2)ccc1Cl	1.0%	-6.2	-1.4%	·	15.7	2.0	0.6
COc1ccc(-n2nc3c(c2NC(=O)c2ccc(Br)cc2)CS(=O)C3)cc1 (stereo not given)	0.7%	-19.2	-11.8%	0.3%	-4.0	2.0	-0.2
COc1cccc(COc2ccc(N(C)S(=O)(=O)c3ccccc3)cc2)c1	0.2%	80.0	5.4%	-7.5%	0.9	2.8	3.4
Cc1ccsc1/C=N\NC(=O)c1n[nH]c2c1CCC2	11.1%	-0.7	-1.5%	-2.5%	3.3	0.2	0.0
O=C1C/C(=C\c2c(F)cccc2Cl)N2CCC1CC2	-1.3%	22.5	10.8%	0.0%	12.7	-5.8	0.3
